PKD1 inh = inhibitors of human PKD1 kinase, biochemical, fluorescence polarization; Serine/threonine-protein kinase D1 (Homo sapiens), Q15139; PKD1 kinase fluorescence polarization assay; inhibition, %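 (about 10 µM by stock and volumes)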; hit rate 0.056% among 200,000;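 active means inhibition of 50% or more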;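 further: controls were vehicle for no effect and a reference inhibitor for full effect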
Target sequence (Q15139 whole entry, looked up): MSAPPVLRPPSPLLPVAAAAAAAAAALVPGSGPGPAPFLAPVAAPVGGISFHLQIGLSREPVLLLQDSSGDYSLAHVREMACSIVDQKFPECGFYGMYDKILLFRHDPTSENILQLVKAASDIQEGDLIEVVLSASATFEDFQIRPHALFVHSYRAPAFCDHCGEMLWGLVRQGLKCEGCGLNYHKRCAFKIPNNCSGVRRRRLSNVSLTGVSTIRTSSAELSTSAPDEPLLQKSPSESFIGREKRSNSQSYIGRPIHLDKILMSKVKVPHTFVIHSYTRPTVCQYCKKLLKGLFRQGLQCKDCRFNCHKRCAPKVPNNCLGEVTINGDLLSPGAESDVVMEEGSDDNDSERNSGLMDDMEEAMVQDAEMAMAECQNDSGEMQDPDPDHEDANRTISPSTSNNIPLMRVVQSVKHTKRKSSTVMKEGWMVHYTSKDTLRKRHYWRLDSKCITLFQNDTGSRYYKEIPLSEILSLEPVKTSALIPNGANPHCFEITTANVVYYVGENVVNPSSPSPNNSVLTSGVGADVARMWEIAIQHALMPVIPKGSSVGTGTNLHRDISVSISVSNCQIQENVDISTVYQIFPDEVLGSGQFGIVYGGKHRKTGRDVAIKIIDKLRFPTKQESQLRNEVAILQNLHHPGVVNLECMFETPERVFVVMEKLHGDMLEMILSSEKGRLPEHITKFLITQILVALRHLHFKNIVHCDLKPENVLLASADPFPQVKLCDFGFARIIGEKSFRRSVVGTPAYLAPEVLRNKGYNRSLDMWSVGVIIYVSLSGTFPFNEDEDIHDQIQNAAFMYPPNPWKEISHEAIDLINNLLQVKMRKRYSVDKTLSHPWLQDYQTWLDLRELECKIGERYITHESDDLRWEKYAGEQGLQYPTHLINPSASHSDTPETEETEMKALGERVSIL
INS promoter inh = inhibitors of insulin promoter-driven GFP, primary screen, imaging, TRM-6 cells (human fetal islet line), eGFP reporter, cell count | reporter expression induced with tamoxifen | inhibition, % at 2 µM | hit rate 0.9% among 130,000 | AID 1273, 2008;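 active means inhibition above the mean plus 3 SD, with well images judged a real hit on visual review, cut at about 60% in these data, passing the limit was not always enough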
GALR2 ag = GALR2 receptor agonists, primary screen, cell-based | GALR2-expressing cells, agonist activation read-out | activation, %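 (tested at 5 µM)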 | hit rate 0.48% among 140,000;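 active means above mean plus 3 SD of all compounds, about 5% in these data, not always enough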;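 further: 0% = vehicle buffer wells and 100% = reference agonist at full effect; tested in CHO reporter cells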
RGS16-Gao HTS = modulators of RGS16 binding to Galphao, primary screen, biochemical, human proteins, multiplexed bead flow cytometry | Regulator of G-protein signaling 16 (Homo sapiens) + Guanine nucleotide-binding protein … | bead-based flow cytometry RGS16-Galphao binding, fluorescence; actives lie on both sides | binding response (% of control), % at 10 µM | hit rate 0.38% among 220,000 | AID 1441, 2008;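 active means below 25% or above 175%, edge rows of some plates excepted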;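 further: Galphao activated by GDP with aluminum fluoride before binding; 100% = wells without compound and 0% = beads without RGS; some results beyond the cut were filed as inactive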
HSV replic up = enhancers of HSV replication in host cells, fold increase, host cell viability; maximum fold increase; AID 1956, 2009; HSV replication augmentation in cells; hit rate 0.005% among 220,000;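 active means peak rise of 1.5-fold or more in the series; tested in PC3 cells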;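 further: first round at 10 µM; read as green reporter fluorescence; hits show the peak of a series up to 25 µM; 1 = signal of infected wells without compound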
INS promoter inh cell count = second read-out of INS promoter inh, no call of its own (marks repeat the call); normalized cell count, %; measured here: cell count, toxicity; reference of the scale not given here;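 cells exposed to compound for 48 h; stained nuclei by imaging scaled within each plate; lower means fewer cells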
HSV replic up primary fold = further read-out of HSV replic up, marked with its call; fold increase; compound at 10 µM; measured here: primary screen fold increase 10 uM; tested in PC3 cells;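 GFP signal in the first replicate; 1 = infected wells without compound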
* = called active by the depositor.

Screening Cc1ccc(-c2nc(CSCC(=O)N3CCN(c4ccccn4)CC3)c(C)o2)cc1 returned PKD1 inh -10, GALR2 ag -4.3 and RGS16-Gao HTS 102.
COc1cccc(C(=O)N2CCN(Cc3nc(CC4CC4)no3)CC2)c1 was read as RGS16-Gao HTS 107, HSV replic up inactive and HSV replic up primary fold 1.1.
`C(=C\c1ccco1)/c1ccc2ccccc2n1` gave RGS16-Gao HTS 94, HSV replic up inactive and HSV replic up primary fold 1.2.
Screening C=CCNc1nc(Cl)nc(Nc2ccc(OC)cc2)n1 returned PKD1 inh 0, INS promoter inh 54, GALR2 ag -1.0, RGS16-Gao HTS 103, HSV replic up inactive, INS promoter inh cell count 111 and HSV replic up primary fold 1.
Cc1sc2ncnc(OCC(=O)N3CC(=O)Nc4ccccc43)c2c1C was read as PKD1 inh 6, INS promoter inh 19, RGS16-Gao HTS 108, HSV replic up inactive, INS promoter inh cell count 74 and HSV replic up primary fold 0.86.
For COc1ccc(N2C(=O)CC(NCCNc3ccc([N+](=O)[O-])cn3)C2=O)cc1 (stereo unspecified) the results were PKD1 inh -1, INS promoter inh 13, GALR2 ag 0.5, RGS16-Gao HTS 87, HSV replic up inactive, INS promoter inh cell count 111 and HSV replic up primary fold 1.
O=S(=O)(c1ccccc1)N(CC(O)CN1CCCCC1)c1ccccc1 (stereo unspecified) was read as PKD1 inh -3, INS promoter inh 29, GALR2 ag -0.2, RGS16-Gao HTS 96, HSV replic up inactive, INS promoter inh cell count 97 and HSV replic up primary fold 1.
Screening O=C(O)C(c1ccccc1)N1CCCC1 (stereo unspecified) returned PKD1 inh -22, GALR2 ag -0.4, RGS16-Gao HTS 103, HSV replic up inactive and HSV replic up primary fold 1.1.
`Cn1c2ccccc2c(=O)c2c(=O)n(C3CCCCC3)c(-c3cccs3)nc21` gave PKD1 inh -8, INS promoter inh 14, GALR2 ag -1.2, RGS16-Gao HTS 100, HSV replic up inactive, INS promoter inh cell count 113 and HSV replic up primary fold 1.2.
`Clc1ccc2oc(-c3cccnc3NCc3ccccc3)nc2c1` gave PKD1 inh -10, GALR2 ag 3.0, RGS16-Gao HTS 100, HSV replic up inactive and HSV replic up primary fold 0.93.
Screening CC1CCN(CCNC(=O)CCS(=O)(=O)c2ccc(Br)cc2)CC1 returned PKD1 inh -17, GALR2 ag -0.7, RGS16-Gao HTS 101, HSV replic up inactive and HSV replic up primary fold 0.86.
For CCOC(=O)C1=C(C)OC2(O)c3ccccc3C(=O)C12O (stereo unspecified) the results were RGS16-Gao HTS 94, HSV replic up inactive and HSV replic up primary fold 0.91.
`O=C(C1CCCN(S(=O)(=O)c2cccc3nonc23)C1)N1CCN(c2cccc(Cl)c2)CC1` (stereo unspecified) gave PKD1 inh 1, INS promoter inh 12, GALR2 ag -2.1, RGS16-Gao HTS 101, HSV replic up inactive, INS promoter inh cell count 56 and HSV replic up primary fold 0.88.
Screening CCOC(=O)c1c(NC(=O)C2=C(C)NC(=S)NC2c2ccc(CC)cc2)sc(C)c1C (stereo unspecified) returned PKD1 inh -2, INS promoter inh 53, GALR2 ag 9.5*, RGS16-Gao HTS 94, HSV replic up inactive, INS promoter inh cell count 149 and HSV replic up primary fold 0.82.
CCN(CC)CCNc1nc(-c2ccc(OC)cc2)c(-c2ccc(OC)cc2)s1 was read as RGS16-Gao HTS 96, HSV replic up inactive and HSV replic up primary fold 0.78.
For Cc1nn(-c2ccccc2C(=O)O)c(=O)c2ccccc12 the results were PKD1 inh 4, INS promoter inh 58, GALR2 ag -1.6, RGS16-Gao HTS 102, HSV replic up inactive, INS promoter inh cell count 77 and HSV replic up primary fold 1.
For NC(=O)c1ccc(Oc2ccc(Cl)c3ccccc23)c([N+](=O)[O-])c1 the results were PKD1 inh 2, INS promoter inh 0, GALR2 ag -0.8, RGS16-Gao HTS 54, HSV replic up inactive, INS promoter inh cell count 82 and HSV replic up primary fold 0.96.
For CC(C)CCNC(=O)c1c[nH]c2ccc(S(=O)(=O)N3CCC4(CC3)OCCO4)cc2c1=O the results were PKD1 inh 1, GALR2 ag -2.2, RGS16-Gao HTS 111, HSV replic up inactive and HSV replic up primary fold 0.87.
For CCc1ccc(N2CC(O)=C(c3nc4ccccc4c(=O)[nH]3)C2=N)cc1 the results were PKD1 inh -3, RGS16-Gao HTS 101, HSV replic up inactive and HSV replic up primary fold 0.88.
Screening COc1ccc(CCNC(=O)c2cc(-c3ccc(C)cc3O)n[nH]2)cc1OC returned PKD1 inh -1, INS promoter inh -33, GALR2 ag -1.3, RGS16-Gao HTS 101, HSV replic up inactive, INS promoter inh cell count 137 and HSV replic up primary fold 0.89.
For Cc1ccc(F)cc1NC(=O)N1CCCN(c2ccc(C(F)(F)F)cn2)CC1 the results were RGS16-Gao HTS 100, HSV replic up inactive and HSV replic up primary fold 1.1.
Screening CCOC(=O)Cn1c(C(=O)OCC)cc2sccc21 returned PKD1 inh -2, GALR2 ag -0.7, RGS16-Gao HTS 174, HSV replic up inactive and HSV replic up primary fold 0.96.
`Cc1nc2ccc(S(=O)(=O)NC(C(=O)NCc3ccco3)C(C)C)cc2s1` (stereo unspecified) gave PKD1 inh -4, GALR2 ag -1.2, RGS16-Gao HTS 91, HSV replic up inactive and HSV replic up primary fold 0.86.
COC(=O)c1sc(S(=O)(=O)N2CCN(c3ccccc3)CC2)c(C(=O)OC)c1C was read as PKD1 inh 0, INS promoter inh -77, GALR2 ag -4.6, RGS16-Gao HTS 100, HSV replic up inactive, INS promoter inh cell count 81 and HSV replic up primary fold 0.84.
Screening COc1cccc2cc(-c3nnc(SCC(=O)Nc4nc(C)cs4)n3C)oc12 returned PKD1 inh -9, GALR2 ag -1.2, RGS16-Gao HTS 107, HSV replic up inactive and HSV replic up primary fold 0.98.
`Cc1cc(C)cc(C(=O)OCC(=O)Nc2cccc(S(=O)(=O)NC3=NCCCCC3)c2)c1` gave PKD1 inh -14, INS promoter inh -47, GALR2 ag -1.4, RGS16-Gao HTS 99, HSV replic up inactive, INS promoter inh cell count 83 and HSV replic up primary fold 0.96.
`CN(C)C(=O)C1OC(C)(C)OC1C(=O)N(C)C` (stereo unspecified) gave PKD1 inh 3, INS promoter inh 60, GALR2 ag -1.1, RGS16-Gao HTS 98, HSV replic up inactive, INS promoter inh cell count 76 and HSV replic up primary fold 0.71.
O=C(NCc1cccc(F)c1)C1CCN(C(=O)c2sccc2-n2cccc2)CC1 was read as PKD1 inh 7, RGS16-Gao HTS 93, HSV replic up inactive and HSV replic up primary fold 1.1.
For Cc1cc(NC(=O)COC(=O)c2ccc(S(=O)(=O)N3CCCc4ccccc43)cc2)no1 the results were PKD1 inh -13, INS promoter inh -37, GALR2 ag -1.5, RGS16-Gao HTS 108, HSV replic up inactive, INS promoter inh cell count 30 and HSV replic up primary fold 0.46.
CC(=O)c1cn(CCCCCCCCCCn2cc(C(C)=O)c(=O)[nH]c2=O)c(=O)[nH]c1=O was read as PKD1 inh 0, GALR2 ag -2.2, RGS16-Gao HTS 104, HSV replic up inactive and HSV replic up primary fold 0.95.
For O=C(NCCCn1ccnc1)C(=O)NCC(c1ccco1)N1CCN(c2ccccc2)CC1 (stereo unspecified) the results were PKD1 inh -3, RGS16-Gao HTS 94, HSV replic up inactive and HSV replic up primary fold 1.1.
`COc1ccc(Nc2cc(Cl)ccc2C(=O)O)cn1` gave RGS16-Gao HTS 97, HSV replic up inactive and HSV replic up primary fold 1.1.
Screening Cc1nc2ccccn2c1/C(O)=C1\C(=O)C(=O)N(CCN2CCOCC2)C1c1ccncc1 (stereo unspecified) returned PKD1 inh 1, INS promoter inh 42, GALR2 ag -0.1, RGS16-Gao HTS 94, HSV replic up inactive, INS promoter inh cell count 86 and HSV replic up primary fold 1.1.
`CC(=O)c1c(N2CCOCC2)nc2ccc(Cl)cc2c1-c1ccccc1` gave RGS16-Gao HTS 104, HSV replic up inactive and HSV replic up primary fold 1.1.
`CCOc1ccc(C(CCc2ccccc2)NC(=O)c2ccccc2F)cc1OCC` (stereo unspecified) gave PKD1 inh -4, INS promoter inh -29, GALR2 ag -3.1, RGS16-Gao HTS 101, HSV replic up inactive, INS promoter inh cell count 112 and HSV replic up primary fold 1.1.
Screening COc1ccc(CC(=O)NC(c2ccccc2)c2ccccc2)cc1S(=O)(=O)N1CCOCC1 returned PKD1 inh -8, INS promoter inh -24, GALR2 ag -2.6, RGS16-Gao HTS 100, HSV replic up inactive, INS promoter inh cell count 63 and HSV replic up primary fold 1.1.
For Clc1ccccc1Cn1nnc(-c2ccccc2)n1 the results were PKD1 inh 5, INS promoter inh -25, RGS16-Gao HTS 103, HSV replic up inactive, INS promoter inh cell count 156 and HSV replic up primary fold 1.1.
`COc1ccc(C(C(=O)NC2CCCCC2)N(CC2CCCO2)C(=O)C2COc3ccccc3O2)cc1OC` (stereo unspecified) gave PKD1 inh -6, INS promoter inh 19, GALR2 ag -2.1, RGS16-Gao HTS 103, HSV replic up inactive, INS promoter inh cell count 131 and HSV replic up primary fold 0.87.
Screening O=C(CN1CCN(S(=O)(=O)c2ccc(Br)cc2)CC1)N/N=C/c1ccc(Cl)c([N+](=O)[O-])c1 returned PKD1 inh 12, GALR2 ag -0.8 and RGS16-Gao HTS 105.
Cc1ccc(S(=O)(=O)NNC(=O)Nc2cccc3ccccc23)cc1 was read as PKD1 inh -5, INS promoter inh -6, GALR2 ag -2.1, RGS16-Gao HTS 108, HSV replic up inactive, INS promoter inh cell count 90 and HSV replic up primary fold 0.97.

Fetched one by one from above, 7 records:
CC(=O)c1cn(CCCCCCCCCCn2cc(C(C)=O)c(=O)[nH]c2=O)c(=O)[nH]c1=O was read as PKD1 inh 0, GALR2 ag -2.2, RGS16-Gao HTS 104, HSV replic up inactive and HSV replic up primary fold 0.95.
`O=C(C1CCCN(S(=O)(=O)c2cccc3nonc23)C1)N1CCN(c2cccc(Cl)c2)CC1` (stereo unspecified) gave PKD1 inh 1, INS promoter inh 12, GALR2 ag -2.1, RGS16-Gao HTS 101, HSV replic up inactive, INS promoter inh cell count 56 and HSV replic up primary fold 0.88.
COc1cccc(C(=O)N2CCN(Cc3nc(CC4CC4)no3)CC2)c1 was read as RGS16-Gao HTS 107, HSV replic up inactive and HSV replic up primary fold 1.1.
For Cc1nn(-c2ccccc2C(=O)O)c(=O)c2ccccc12 the results were PKD1 inh 4, INS promoter inh 58, GALR2 ag -1.6, RGS16-Gao HTS 102, HSV replic up inactive, INS promoter inh cell count 77 and HSV replic up primary fold 1.
Screening COc1ccc(CCNC(=O)c2cc(-c3ccc(C)cc3O)n[nH]2)cc1OC returned PKD1 inh -1, INS promoter inh -33, GALR2 ag -1.3, RGS16-Gao HTS 101, HSV replic up inactive, INS promoter inh cell count 137 and HSV replic up primary fold 0.89.
For CCOC(=O)C1=C(C)OC2(O)c3ccccc3C(=O)C12O (stereo unspecified) the results were RGS16-Gao HTS 94, HSV replic up inactive and HSV replic up primary fold 0.91.
CCN(CC)CCNc1nc(-c2ccc(OC)cc2)c(-c2ccc(OC)cc2)s1 was read as RGS16-Gao HTS 96, HSV replic up inactive and HSV replic up primary fold 0.78.

Carrying on.
COc1ccc(-n2c(=O)n(Cc3ccccc3)c(=O)c3[nH]cnc32)cc1 was read as RGS16-Gao HTS 93, HSV replic up inactive and HSV replic up primary fold 0.96.
For COc1ccc(COCC(O)CN2CCC(CN3C(=O)c4cccc5cccc(c45)C3=O)CC2)cc1OC (stereo unspecified) the results were PKD1 inh -5, INS promoter inh -67, GALR2 ag 0.6, RGS16-Gao HTS 106, HSV replic up inactive, INS promoter inh cell count 135 and HSV replic up primary fold 0.58.
For COC(=O)c1ccc(Cn2c(O)c(N=O)c3ccccc32)o1 the results were PKD1 inh -2, GALR2 ag -3.5, RGS16-Gao HTS 99, HSV replic up inactive and HSV replic up primary fold 1.
CC(=O)Nc1sc(-c2ccc(Cl)cc2)nc1-c1ccccc1 was read as RGS16-Gao HTS 103, HSV replic up inactive and HSV replic up primary fold 0.57.
CCCC(=O)NC(=S)Nc1ccccc1F was read as PKD1 inh -1, INS promoter inh -33, GALR2 ag 0.0, RGS16-Gao HTS 102, HSV replic up inactive, INS promoter inh cell count 104 and HSV replic up primary fold 0.97.
Screening CCN(CC)C(=O)CC(c1ccc2c(c1)OCO2)c1c(OC)cc(OC)c2c(-c3ccccc3)cc(=O)oc12 (stereo unspecified) returned RGS16-Gao HTS 103, HSV replic up inactive and HSV replic up primary fold 0.71.

Hits appear at their usual frequency (roughly 1.3% active in at least one column).
